Screening data: PubChem BioAssay, several laboratories
CBX7 inh = blocks human CBX7 binding to H3K27me3 peptide; O95931; AlphaScreen His6-CBX7 / biotin-H3K27me3 peptide binding; hits give low values; normalised signal (fraction of DMSO) (concentration not given with the values); 66,000 tested, 1.1% active; AID 1224903; in the data active means normalised signal below about 0.5;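 further: 100 nL library stock added to about 20 µL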
Target sequence (O95931 whole entry, looked up): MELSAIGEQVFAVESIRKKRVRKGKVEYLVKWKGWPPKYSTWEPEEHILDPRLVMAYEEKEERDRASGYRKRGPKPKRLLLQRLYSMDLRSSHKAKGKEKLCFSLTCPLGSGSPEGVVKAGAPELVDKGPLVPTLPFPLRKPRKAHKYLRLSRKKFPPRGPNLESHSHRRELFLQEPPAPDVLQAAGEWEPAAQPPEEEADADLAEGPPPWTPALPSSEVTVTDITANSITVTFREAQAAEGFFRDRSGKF
CBX7 inh z-score = also measured in CBX7 inh; calls as there; z-score; measured here: z-score of CBX7 signal; some inactives read as strong as hits; reference of the scale not given here;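 same signal on another scale; lower means less binding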
* = called active by the depositor; & = joins results of further samples.

SMILES	CBX7 inh	CBX7 inh z-score
COc1ccc(CCNC(=O)c2cc(Nc3ccccc3)nc3ccccc23)cc1OC	1	-0.027
CC1CCCC(NC(=O)CN(C)S(=O)(=O)c2cccc3cccnc23)C1C (centres undefined)	0.96	-0.87
CCN1C(=O)CSc2ccc(C(=O)NC3CCCC3)cc21	1.1	2.6
Cc1cccc(N2CCN(S(=O)(=O)c3ccc4c(c3)CCN4C(=O)C3CCC3)CC2)c1C	0.95	-1.6
O=S(=O)(c1ccc(-c2cn3ccccc3n2)cc1)N1CCOCC1	1.4	1.5
O=C1CCc2cc(S(=O)(=O)N3CCC(C(=O)Nc4nccs4)CC3)ccc2N1	1	-0.08
Cc1ccc(C)c(Cc2c(C)nc3c(C(=O)NC4CCCCC4C)c[nH]n3c2=O)c1 (centres undefined)	1	0.39
COc1cccc(CN2C(=O)c3ccccc3C2C(=O)NCCc2ccc(OC)c(OC)c2)c1 (centres undefined)	1.2	1.4
COc1ccc(Cc2nnc(NC(=O)C(C)C)s2)cc1OC	1	1.3
CCCCC1CCC(C(=O)N2CC(=O)Nc3ccc(Br)cc3C2c2ccc(F)cc2)CC1 (centres undefined)	0.75	-3.4
COc1ccc(Br)cc1CNC(=O)CCCc1cn(C)c2ccccc12	0.42*	-10*
CCOC(=O)c1ccc(NC(=O)CSc2nnc(Cc3cccn3C)n2-c2ccc(C)cc2)cc1	0.78	-5.3
CC(C)CN(CCNC(=O)CN1CCN(Cc2ccc(Cl)cc2)C1=O)CC(C)C	0.99	-0.13
CCN(CCCNC(=O)c1cc(Sc2nnc(C)s2)nc2ccccc12)c1cccc(C)c1	0.99	-0.14
O=C(C1CC1)N1CCc2cc(S(=O)(=O)N3CCN(c4cccc(C(F)(F)F)c4)CC3)ccc21	1	0.097
COc1ccc(-c2noc(-c3ccc(Br)cc3)n2)cc1	0.99	-0.052
COc1ccc2nc(NC(=O)Nc3cccs3)sc2c1	0.7	-5.5
CCCCNC(=O)c1cn(CC)c2ccc(S(=O)(=O)N3CCC(C)CC3)cc2c1=O	1.1	0.9
O=C(c1ccc2c(c1)N(Cc1ccccc1Cl)C(=O)CS2)N1CCCC1	0.94	-1.4
COc1ccc(-n2nc(C(=O)N3CCOCC3)c3ccccc3c2=O)cc1	1	0.28
CC(C)Cc1cc(C(=O)Nc2cnn(Cc3ccc(F)cc3)c2)no1	1.1	0.18
CCOc1ccccc1NC(=O)c1c(NCc2cccn2C)sc2c1CCC2	0.92	-4
COc1ccc(Cc2nn3c(-c4ccccc4)nnc3s2)cc1	1.1	2.5
Cc1ccc(Nc2nc(-c3ccc(Br)cc3)cs2)cc1Cl	0.65	-5.5
CN(Cc1ccccc1)C(=O)CN1C(=O)CSc2ccc(S(=O)(=O)N3CCCCC3)cc21	1	-0.13
More records
SMILES	CBX7 inh	CBX7 inh z-score
O=C(CN1C(=O)CSc2ncccc21)NCCCN1CCC(Cc2ccccc2)CC1	1.1	0.13
COc1ccc(Nc2cc(C(=O)NCCN3CCCCCC3)c3ccccc3n2)cc1OC	0.85	-1.8
CCCOc1ccc(NC(=O)c2c(-c3c(F)cccc3Cl)noc2C)cc1	0.96	-0.44
CCOc1ccc(C(=O)Nc2cccc(-c3nc4ccccc4o3)c2)cc1Cl	0.98	-0.5
O=C(NCc1ccc(F)cc1Cl)c1cc(=O)[nH]c2ccccc12	1	0.31
Cc1cc2c(cc(C(=O)NCCCc3ccccc3)n2Cc2ccc(Cl)cc2)o1	0.99	-0.16
COc1ccccc1-c1c(C)nn2c(N3CCN(c4ncccn4)CC3)cc(C)nc12	0.87	-0.74
CC1CCCC(C)N1C(=O)C1CC(c2ccc(F)cc2)=NO1 (centres undefined)	1.1	2.7
O=C(c1cc2ccccn2n1)N1CCN(c2ccccn2)CC1	0.98	-0.48
O=C(C1CC1)N1CCc2cc(S(=O)(=O)NCC3CCCO3)ccc21 (centres undefined)	1	0.25
CCc1ccc(NC(=O)CC2Oc3ccccc3NC2=O)cc1 (centres undefined)	0.97	-0.5
O=C(NC1CCCc2ccccc21)C1CCN(c2nc3ccccc3[nH]2)CC1 (centres undefined)	0.99	-0.16
CCN1CCCC1CNC(=O)CS(=O)(=O)Cc1nc(-c2ccccc2C)oc1C (centres undefined)	1	1.1
COc1cc(OC)nc(N2C(=O)CC(Cc3ccccc3)C2=O)n1 (centres undefined)	1.1	0.76
Cc1ccccc1-c1nc(CS(=O)(=O)CC(=O)NCCCN2C(C)CCCC2C)c(C)o1 (centres undefined)	0.97	-0.48
O=C(NCc1ccc2c(c1)OCO2)c1ccc2c(c1)N(Cc1ccc(F)cc1)CCS2	0.77	-6.2
COc1ccc(OC)c(NC(=O)C2CC2(c2cccc(C)c2)c2cccc(C)c2)c1 (centres undefined)	0.65	-4.8
CC1CCCCC1NC(=O)C1CCCN(c2nc3ccccc3o2)C1 (centres undefined)	1	0.73
c1ccc(-c2nc3ccccn3c2Nc2ccc3c(c2)OCO3)cc1	1	0.0035
CN(CC(=O)N1CCCCCC1)S(=O)(=O)c1cccc2cccnc12	0.89	-1.3
O=C(C1CCC1)N1CCc2cc(S(=O)(=O)NCCC3=CCCCC3)ccc21	1.5	1.9
CCCCc1nc(SCC(=O)Nc2nnc(CC)s2)n[nH]1	1	0.19
Cc1cc(=O)oc2c(CN3CCC(C)CC3)c(O)ccc12	0.95	-1.1
CCOC(=O)N1CCC(NC(=O)c2cc3c(s2)-c2ccccc2OC3)CC1	1.1	2.1
O=C1CCCC2=C1C(c1cccc(Br)c1)Nc1ccccc1N2 (centres undefined)	1.1	1.1
Other compounds.
SMILES	CBX7 inh	CBX7 inh z-score
Clc1ccc(-c2csc(N3CCc4ccccc4C3)n2)cc1	1.2	6.4
CCOC(=O)N1CCN(c2c(NCCN3CCN(c4cccc(Cl)c4)CC3)c(=O)c2=O)CC1	0.97	-0.46
CCOc1ccc(CNc2ccc3oc(-c4ccccc4C)nc3c2)cc1	1.2	3.2
O=C(Cn1ccc2ccccc2c1=O)NCC(=O)Nc1nc2ccccc2s1	1.1	2.9
CCOc1cc2c(cc1OCC)C1C(C(=O)Nc3ccc(F)c(Cl)c3)c3ccccc3C(=O)N1CC2 (centres undefined)	0.92	-0.64
O=C(Cn1nc(-c2ccccc2)ccc1=O)NCCCN1CCC(Cc2ccccc2)CC1	1	2.2
CCC(C)NC(=O)c1ccc2c(c1)nc(C)n2-c1cccc(C)c1 (centres undefined)	0.99	-0.11
Cc1ccc(C)c2[nH]c(=O)c(CCNC(=O)C3CC3)cc12	1	0.25
O=C1CCc2cc(S(=O)(=O)NC(Cc3ccccc3)C(=O)NCCc3ccccc3)ccc2N1 (centres undefined)	0.98	-0.45
CCN(c1cccc(C)c1)C(C(=O)NC1CCCC1)c1ccccc1 (centres undefined)	0.82	-4.5
O=C1CN(C(=O)CCC2CCCC2)C(c2ccccc2)c2cc(Cl)ccc2N1 (centres undefined)	0.91	-2.2
COCCN1Cc2cccc(C(=O)Nc3ccc(C)c(Cl)c3)c2C1=O	1	0.013
COc1ccc(OC)c(NC(=O)Nc2ccc3snnc3c2)c1	0.84	-6.4
C=CCN1C(=O)N(c2ccccc2)C(=O)C1CC(=O)Nc1ccccc1 (centres undefined)	1.1	0.42
Cc1ccc(CN2C(=O)CCC2C(=O)NCCN2CCC(Cc3ccccc3)CC2)cc1 (centres undefined)	1	0.73
CCC1Oc2ccc(C)cc2N(CC(=O)NCCN2CCC(Cc3ccccc3)CC2)C1=O (centres undefined)	0.97	-1.3
O=C(Nc1sc2c(c1C(=O)N1CCOCC1)CCCC2)c1ccccc1	1	0.77
O=C(NCCCN1CCOCC1)c1cc(-c2ccco2)on1	0.95	-1.4
COCCCNC(=O)CS(=O)(=O)Cc1nc(-c2cccc(OC)c2)oc1C	1.1	2.7
Cc1ccc(NS(=O)(=O)c2ccc3[nH]cc(C(=O)NCCCOC(C)C)c(=O)c3c2)c(C)c1	1	0.16
CCOC(=O)c1cnc2cc(Cl)c(OC)cc2c1NCc1ccc(F)cc1	0.86	-2.1
CCn1c(C(=O)Nc2ccc(OC)cc2)cc2sc(Cl)cc21	0.92	-1.4
Cc1nc2c(C(=O)NCc3ccc4c(c3)OCO4)cnn2c(C)c1Cc1ccccc1F	1	0.27
CCOC(=O)c1cnc2ccc(OCC)cc2c1N(C)Cc1ccccc1	0.73	-0.31
CCOc1cccc(C(=O)Nc2cc(-c3nc4ccccc4s3)ccc2Cl)c1	1	1.4
Carrying on:
SMILES	CBX7 inh	CBX7 inh z-score
O=C(Nc1c(-c2ccc(F)cc2)nc2ccccn12)c1cccc(F)c1	1	1.1
O=c1c(-c2ccc3ccccc3n2)cc2ccccc2n1Cc1ccccc1	1.3	7.2
COc1ccc(-c2[nH]c(-c3ccccc3)nc2SCC(=O)Nc2nccs2)cc1	0.85	-2.5
COc1cccc(CNC(C)(C)CO)c1OCc1ccc(Cl)cc1	1	0.15
Cc1ccn2c(=O)c(C(=O)Nc3ccc(C(F)(F)F)cc3)cnc2c1	1	0.47
O=C(CC1(O)C(=O)N(Cc2ccccc2)c2ccccc21)c1ccccn1 (centres undefined)	0.85	-1.5
CC(C)c1ccc(CN(C(=O)COc2ccc(Br)cc2)C2CCS(=O)(=O)C2)cc1 (centres undefined)	0.88	-0.12
O=C(NCc1cccnc1)c1cc(-c2ccncc2)nc2ccccc12	1	0.018
Cc1ccn2c(Nc3ccc4c(c3)OCCO4)c(-c3cccs3)nc2c1	0.8	-0.27
Cc1cccc(NC(=O)c2sc3nc(-c4ccc(F)cc4)cn3c2C)n1	1	1.1
Cc1nc2cc(-c3cccc(F)c3)nn2c(C)c1CCC(=O)O	1	0.18
COc1cccc(-c2nn(C)c3sc(C(=O)Nc4ccc(OC)cc4OC)cc23)c1	0.94	-2.7
O=C(CSCc1cnn(-c2ccccc2)c1-n1cccc1)N1CCOCC1	0.99	-0.54
Cc1nc(Oc2ccc(F)cc2)c(C(=O)NCc2ccccc2)c(C)c1Cl	1.3	3.1
Cc1cccc(CC(=O)Nc2ccc3nc(N4CCN(c5ncccn5)CC4)cc(C)c3c2)c1	1	1.2
CCCCCCCCn1c(-c2nonc2N)nc2ccccc21	1.2	9.5
Cc1ccc(-c2nn(C)c(=O)c3ccccc23)cc1CNC(=O)CN1CCCCC1	1	0.95
CCCCN(CCCC)S(=O)(=O)c1ccc2[nH]c(=O)cc(C(=O)NCC3CCCO3)c2c1 (centres undefined)	1	1
CCOC(=O)C1CCN(S(=O)(=O)c2cc(Br)cc3c2N(C(=O)C2CC2)CC3)CC1	1.1	3.6
CCCNC(=O)CCc1c(C)nc2cc(-c3ccccc3)nn2c1C	1	1.7
CCCCNc1cc(-n2nc(C)cc2-c2ccccc2)ncn1	0.89	-1.1
CC(C)(C)OC(=O)N1CCC(c2cc(=O)n3[nH]cc(C(=O)NC4CCCC4)c3n2)CC1	0.99	-0.25
Cc1ccc(S(=O)(=O)Nc2ccccc2CNc2cccc(Br)c2)cc1	1.1	1.8
CCn1cnc2cc(NCc3ccccc3Cl)ccc21	0.84	-4
N#Cc1nc(COc2ccc(Br)cc2)oc1N1CCCCC1	0.73	-12
Remaining list, next part
SMILES	CBX7 inh	CBX7 inh z-score
O=C(c1ccccc1)c1cn(Cc2cccc(F)c2)c2c(F)cc(F)cc2c1=O	0.75	-0.88
COc1ccc(CCNC(=O)CC2(CC3=NS(=O)(=O)c4ccccc4N3)CCCC2)cc1OC	1.1	2.2
CCOC(=O)c1cnc2c(C)cc(C)cc2c1Nc1cccc(OC)c1	1	0.43
COc1cc2c(cc1OC)C(c1cccnc1)CC(=O)N2 (centres undefined)	1	0.034
Cc1csc2ncc(C(=O)NCc3ccc(F)cc3)c(=O)n12	0.87	-1.5
CC1CCCCN1C(=O)Cn1ncc2c1-c1ccccc1OC2 (centres undefined)	0.96	-0.56
O=C1CC(c2cccc(Cl)c2)c2cc3c(cc2N1)OCO3 (centres undefined)	0.75	-4.8
CS(=O)(=O)CC[C@@H](C(=O)Nc1ccc(F)cc1)N1Cc2ccccc2C1=O	1	0.26
O=C(NCc1nnc(SCC(=O)N2CCN(c3ccccc3)CC2)o1)c1ccccc1F	1	1.2
O=C1CN(C(=O)COc2ccc(Cl)cc2)C(c2ccc(F)cc2)c2cc(F)ccc2N1 (centres undefined)	0.76	-4.4
CCOc1ccc(Nc2nc(C(F)(F)F)c(-c3ccc(F)cc3)s2)cc1	0.99&0.97	-0.12&-0.58
Cc1ccccc1OCC(=O)Nc1c(C(=O)c2ccccc2)oc2ccccc12	1	0.051

These rows are one share of the data. The share of hits here may be higher or lower than overall.
